# Screens (PubChem BioAssay)
# Lassa entry inh: qHTS for Inhibitors of binding or entry into cells for Lassa Virus. Potency, µM (titrated, usually from 37.9 µM), inactives show top-dose activity change, negative = inhibition, hits mostly inhibitors. Lassa virus pseudotype entry inhibition, cell reporter; control for the full effect not named in the record. 300,000 compounds, 1.2% hits; active means well fitted inhibition curve with a large enough effect; inconclusive means small, poorly fitted or top-dose-only effect, or effect the other way; inactive means flat fitted curve, though single readings scatter; tested in HEK293 cells; also: % is scaled to controls: 0 for no effect and ±100 for the full control effect; nearly all actives have a fitted effect of over 50% in size; luciferase read-out
# RE007 growth inh: qHTS Assay for Inhibitors of the HIV-1 protein Vpr | 360,000 compounds, 0.21% hits | S. pombe RE007 Vpr strain, BacTiter-Glo ATP luminescence, 24 h; control for the full effect not named in the record | Potency, µM (titrated, usually from 92.2 µM), for the others: top-dose activity change, negative = less growth | AID 651644, 2012; active = well fitted falling curve with a large enough effect; inconclusive = small, poorly fitted or top-dose-only effect; inactive = no such curve, though single readings can be large or run the other way;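 also: % is scaled to controls: 0 for no effect and ±100 for the full control effect; nearly all actives have a fitted effect of over 50% in size; the assay follows cell death caused by Vpr and the record does not say whether a fall means rescue or toxicity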
#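 Fission yeast RE007 carrying one integrated HIV-1 vpr copy, seeded at OD 0.01 in PMG+AL medium with 23 nL pinned compound. Grown 24 h at 30 degrees; viability read by BacTiter-Glo luminescence after 5 min.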
# Cruzain inh noDet: qHTS Assay for Promiscuous and Specific Inhibitors of Cruzain (without detergent). Cruzipain (Trypanosoma cruzi), P25779. Potency, µM, without a hit: max response, negative = inhibition, actives largely listed as inhibitors. purified cruzain, Z-FR-AMC fluorescence, no detergent. AID 1476, 2009. 200,000 compounds, 2.3% hits; active = well fitted curve in the direction sought with a large enough effect; inconclusive = small, poorly fitted or top-dose-only effect, or another doubt; inactive = no such curve, though single readings can be large; an effect the other way counts as inactive or inconclusive;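 also: plate controls were enzyme without inhibitor for no effect and buffer without enzyme for full effect; nearly all actives have a fitted effect of over 40% in size; top concentration of the series not given in the record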
# Target sequence (P25779 123-467 limits assumed): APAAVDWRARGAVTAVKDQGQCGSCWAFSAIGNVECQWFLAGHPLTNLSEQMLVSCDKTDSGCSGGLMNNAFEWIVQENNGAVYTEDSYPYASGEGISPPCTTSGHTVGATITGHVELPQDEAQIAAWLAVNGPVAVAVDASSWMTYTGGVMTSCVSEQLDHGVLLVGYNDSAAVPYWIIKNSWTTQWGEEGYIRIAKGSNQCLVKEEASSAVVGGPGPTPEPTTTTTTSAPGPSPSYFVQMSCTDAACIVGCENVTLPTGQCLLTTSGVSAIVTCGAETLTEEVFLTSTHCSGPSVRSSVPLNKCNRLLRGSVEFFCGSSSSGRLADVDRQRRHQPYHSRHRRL
#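 Purified cruzain at 1.5 nM, pre-incubated 15 min with compound at room temperature in 100 mM sodium acetate pH 5.5, 5 mM DTT, 0.00005% Triton X-100. Reaction started with 2 uM Z-FR-AMC; AMC fluorescence increase over 60 s gives rate.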
# Cruzain Triton: qHTS Assay for Promiscuous and Specific Inhibitors of Cruzain (with detergent) | Cruzipain (Trypanosoma cruzi), P25779 | purified cruzain, Z-FR-AMC fluorescence, 0.01% Triton | Potency, µM, inactives show max response, negative = inhibition, most hits filed as inhibitors | 200,000 compounds, 0.43% hits | AID 1478, 2009; active = well fitted curve in the direction sought with a large enough effect; inconclusive = small, poorly fitted or top-dose-only effect, or another doubt; inactive = no such curve, though single readings can be large; an effect the other way counts as inactive or inconclusive;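 also: plate controls were neutral wells for no effect and buffer without enzyme for full effect; nearly all actives have a fitted effect of over 40% in size; top concentration of the series not given in the record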
#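 Read-out: AMC fluorescence (360 nm excitation, 450 nm emission), four reads over 2 min, first-to-third difference used. Conditions: cruzain 1.5 nM, Z-FR-AMC 2 uM, pH 5.5 acetate, 5 mM DTT, 0.01% Triton X-100.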
# NS1 function inh: qHTS Assay for Inhibitors of Influenza NS1 Protein Function; S. cerevisiae slowed by influenza A NS1, growth recovery by OD600; Potency, µM (series often up to 46.1 µM), for the others: at the highest dose activity, positive = more growth; 270,000 compounds, 0.4% hits; AID 2326, 2010; also: actives are rising curves; nearly all actives have a fitted effect of over 50% in size
#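 Compounds were scored for reversing the slow growth caused by influenza A NS1 in S. cerevisiae, measured by optical density at 600 nm. Assay medium contained 2% galactose at pH 6.0; NS1-free yeast of the same strain were the positive control.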
# SARS PLpro yeast: qHTS of Yeast-based Assay for SARS-CoV PLP; AID 485353, 2010; Potency, µM (series often up to 32.9 µM), inactives show at the highest dose activity, positive = growth rescue; S. cerevisiae expressing SARS-CoV PLpro, growth rescue; control for the full effect not named in the record; 330,000 compounds, 0.19% hits; also: 0% is about no effect; nearly all actives have a fitted effect of over 55% in size; growth read by luminescence after 48 h
# Marburg entry inh: qHTS for inhibitors of binding or entry into cells for Marburg Virus. Marburg virus pseudotyped entry inhibition, cell reporter; control for the full effect not named in the record; about a third of the inactives were read at about 46 µM. 300,000 compounds, 1.8% hits. Potency, µM (top dose mostly 37.8 µM), without a hit: at the highest dose activity change, negative = inhibition, usual class: inhibitors; active = well fitted inhibition curve with a large enough effect; inconclusive = small, poorly fitted or top-dose-only effect, or effect the other way; inactive = flat fitted curve, though single readings scatter; tested in HEK293 cells; about a fifth of its hits are not listed in these tables; also: % is scaled to controls: 0 for no effect and ±100 for the full control effect; luciferase read-out
# 2A StopGo: High Throughput Screening for Foot and Mouth Disease Virus Antivirals | human cells with a luciferase reporter of 2A StopGo recoding; control for the full effect not named in the record | Potency, µM (highest dose often 57.9 µM), for inactives: at the highest dose signal change, negative = less light | 410,000 compounds, 1.2% hits | AID 1159524, 2015; active = well fitted falling curve with a large enough effect; inconclusive = small, poorly fitted or top-dose-only effect; inactive = no such curve, though single readings can be large or run the other way; tested in HEK293T cells; also: % is scaled to controls: 0 for no effect and ±100 for the full control effect; nearly all actives have a fitted effect of over 45% in size; luciferase light after 4 h
# Active calls of the source: *; ? = inconclusive; . = no result given; & = joins results of further samples; [ ] = another dose, or the depositor's remark. Unless noted, calls follow the shape of the dose curve; as a rule, active means well fitted rising curve with a large enough effect; inconclusive means small, poorly fitted or top-dose-only effect; inactive means no such curve, though single readings can be large or run the other way. Potency is read from the fitted curve at half-maximal effect.
# Field names: A = Lassa entry inh; B = RE007 growth inh; C = Cruzain inh noDet; D = Cruzain Triton; E = NS1 function inh; F = SARS PLpro yeast; G = Marburg entry inh; H = 2A StopGo
O=C(NCC(c1ccco1)N1CCN(c2ccccc2F)CC1)C(=O)NC1CCCCC1 (stereo not drawn)
  A = ? | B = -4% | C = . | D = . | E = . | F = 3% | G = 9% | H = -3%
CCN(CC)S(=O)(=O)c1ccc(-c2ccc(S(=O)(=O)N(CC)CC)cc2)cc1
  A = ? | B = 1% | C = 9% | D = -2.4% | E = 3% | F = 1% | G = ? | H = ?
Cc1ccc(O)c(Nc2ncnc3ccc([N+](=O)[O-])cc23)c1
  A = . | B = -4% | C = . | D = . | E = -7% | F = 0% | G = . | H = -29%
CC(C)(C)NC(=O)C(c1ccccn1)N(C(=O)C1CSC(=O)C1)c1cccc(F)c1 (stereo not drawn)
  A = 8%[46.1 µM] | B = -2% | C = . | D = . | E = . | F = -4% | G = -1%[46.1 µM] | H = 7%
Cc1nc2ccccc2c(=O)n1/N=C/c1ccc(C(C)C)cc1
  A = . | B = 10% | C = . | D = . | E = -7% | F = -3% | G = . | H = -4%
CCc1ccc2nc(N3CCN(C(=O)c4ccccc4)CC3)sc2c1
  A = -8%[46.1 µM] | B = . | C = -12% | D = -6.8% | E = . | F = . | G = . | H = ?
Cn1cc2cccc([N+](=O)[O-])c2n1
  A = -4%[46.1 µM] | B = -4% | C = . | D = . | E = . | F = 0% | G = 10%[46.1 µM] | H = -7%
Cc1nc(SCC(=O)NC2CCS(=O)(=O)C2)c2c3c(sc2n1)CCC3 (stereo not drawn)
  A = -5% | B = -19% | C = . | D = . | E = . | F = 3% | G = 4% | H = -23%
CCCC(=O)Nc1nnc(C2CCCO2)s1 (stereo not drawn)
  A = 3% | B = 1% | C = . | D = . | E = 4% | F = 1% | G = ? | H = 0%
CCOc1ccc2nc(N3CCCC(C(=O)Nc4c(C)cccc4C)C3)sc2c1 (stereo not drawn)
  A = . | B = . | C = -3% | D = 1.3% | E = . | F = . | G = 5%[46.1 µM] | H = 12%
COc1cnc(-c2ccccn2)[nH]c1=O
  A = -15% | B = 3% | C = . | D = . | E = . | F = 14% | G = ? | H = -15%
CC1Cc2ccccc2N1c1nc(C2CC2)nc2c1nnn2Cc1ccccc1 (stereo not drawn)
  A = -8% | B = -1% | C = 20µM* | D = -17% | E = -7% | F = ? | G = 0% | H = -10%
O=C(COC(=O)/C=C/c1cccc(C(F)(F)F)c1)NC(=O)NC1CCCC1
  A = -2% | B = -10% | C = . | D = . | E = . | F = -1% | G = ? | H = 0%
Cc1cccc(OCCCC(=O)Nc2nccs2)c1C
  A = 4%[46.1 µM] | B = 7% | C = . | D = . | E = -37% | F = 0% | G = 2%[46.1 µM] | H = -20%
NCCSc1c(-c2ccc(F)cc2)[nH]c2ccccc12
  A = . | B = -20% | C = . | D = . | E = -1% | F = -1% | G = . | H = -6%
COc1ccc(NC(=O)c2cc3ccccc3o2)cc1
  A = -16% | B = 1% | C = -4% | D = -0.7% | E = -139% | F = -9% | G = ? | H = -8%
COc1cc(C(CCN2CCOCC2)c2c(OC)cc(OC)c3c(C)cc(=O)oc23)cc(OC)c1OC (stereo not drawn)
  A = . | B = -9% | C = . | D = . | E = 12% | F = -4% | G = . | H = 96%[activator]
Cc1ccc(CNC(=O)CSc2nnc3c(n2)[nH]c2ccc(F)cc23)cc1
  A = . | B = 2% | C = . | D = . | E = 1% | F = 2% | G = ? | H = -13%
Cc1ccc(C(=O)CSc2nc(N)cc(=O)[nH]2)cc1
  A = 12% | B = -8% | C = 5% | D = 4.9% | E = 3% | F = 1% | G = 7% | H = -21%
COc1ccccc1/C=C(\NC(=O)c1ccc(OC)c(OC)c1)C(=O)Nc1ccc([N+](=O)[O-])cc1
  A = 3% | B = -6% | C = 6% | D = -3.0% | E = 13µM* | F = -8% | G = 3% | H = -5%
O=C(Nc1cc(-c2ccccc2)[nH]n1)c1ccc(Cl)cc1
  A = . | B = -15% | C = . | D = . | E = 1%&-3% | F = 0%&-2% | G = . | H = 57%[activator]
CCOC(=O)c1ccc2c(c1)n(CC)c(/C=C/N(C)c1ccccc1)[n+]2CC
  A = ? | B = 7% | C = -2% | D = -8.7% | E = 1% | F = -6% | G = ? | H = ?
Cc1cc(OC(C)C(=O)NCCCN2CCOCC2)c2c(C)c(C)c(=O)oc2c1 (stereo not drawn)
  A = . | B = 14% | C = . | D = . | E = 1% | F = 22% | G = . | H = -10%
CSc1ccc(/C=N/N(C)S(=O)(=O)c2ccc(C)cc2)cc1
  A = ? | B = 0% | C = . | D = . | E = 5% | F = -3% | G = ? | H = -2%
COC(=O)c1ccccc1NC(=O)c1sc(N)nc1C
  A = -6% | B = -1% | C = -2% | D = -6.9% | E = -39% | F = -3% | G = -4% | H = -8%
C/C(=N/Nc1ncc(Br)cn1)c1ccc([N+](=O)[O-])cc1
  A = . | B = -14% | C = . | D = . | E = -5% | F = -6% | G = . | H = 2%
Cc1ccc(N2CC(NS(=O)(=O)c3cccs3)CC2=O)cc1 (stereo not drawn)
  A = -1% | B = 31% | C = . | D = . | E = . | F = 1% | G = 1% | H = 1%
CCN(CC)CCN1C(=O)C(=O)/C(=C(/O)c2ccncc2)C1c1ccccc1F (stereo not drawn)
  A = ? | B = 0% | C = 1% | D = -2.6% | E = -2% | F = ? | G = 0% | H = -21%
O=C(CSc1nnc(Nc2ccccc2)s1)NC1CCCC1
  A = -1% | B = -8% | C = . | D = . | E = . | F = 4% | G = 8% | H = -2%
CCc1ccc(NC(=O)c2noc3c2CCCCC3)cc1
  A = -8% | B = 18% | C = ? | D = -0.5% | E = -6% | F = 1% | G = ? | H = 55%[activator]

# Results in Cruzain inh noDet, Lassa entry inh and NS1 function inh, for some of the entries so far:
canonical_smiles	Cruzain inh noDet	Lassa entry inh	NS1 function inh
CCOC(=O)c1ccc2c(c1)n(CC)c(/C=C/N(C)c1ccccc1)[n+]2CC	-2%	?	1%
Cc1cc(OC(C)C(=O)NCCCN2CCOCC2)c2c(C)c(C)c(=O)oc2c1 (stereo not drawn)	.	.	1%
CSc1ccc(/C=N/N(C)S(=O)(=O)c2ccc(C)cc2)cc1	.	?	5%
COC(=O)c1ccccc1NC(=O)c1sc(N)nc1C	-2%	-6%	-39%

# Following part:
# Field names: A = Lassa entry inh; B = RE007 growth inh; C = Cruzain inh noDet; D = Cruzain Triton; E = NS1 function inh; F = SARS PLpro yeast; G = Marburg entry inh; H = 2A StopGo
O=C(NCCN1CCCCCC1)c1ccc(N2CCCC2=O)cc1
  A = 11% | B = 7% | C = -3% | D = -0.1% | E = 1% | F = 0% | G = 11% | H = 11%
Cc1ccc(C(=O)C(C)OC(=O)c2n[nH]c(=O)c3ccccc23)cc1 (stereo not drawn)
  A = -2% | B = 2% | C = -8% | D = 0.7% | E = -9% | F = -2% | G = 0% | H = 4%
COP(=O)(OC)c1nc(-c2cccc3ccccc23)oc1NCCc1ccccc1
  A = ? | B = -8% | C = ? | D = 25µM* | E = 0% | F = 8% | G = -12% | H = ?
CC1=C(C(=O)OC2CCCCCC2)C(c2ccc(Cl)cc2)CC(=O)N1 (stereo not drawn)
  A = ? | B = . | C = -1% | D = -5.9% | E = . | F = . | G = ? | H = -29%
CC1CCCCN1S(=O)(=O)c1ccc(C(=O)Nc2sc3c(c2C(N)=O)CC(C)(C)NC3(C)C)cc1 (stereo not drawn)
  A = 2%[46.1 µM] | B = . | C = 10% | D = 0.3% | E = . | F = . | G = . | H = -10%
O=C(c1ccccc1)c1c2c(cc3sc4ccccc4[n+]13)-c1cccc3cccc-2c13
  A = 15µM* | B = 9% | C = 25µM* | D = -23% | E = -56% | F = -59% | G = ? | H = 40µM*
O=C(O)c1ccccc1-c1ccc(/C=C/c2cc(C(F)(F)F)[nH]c(=O)n2)o1
  A = 7%[46.1 µM] | B = 6% | C = . | D = . | E = . | F = 0% | G = -7%[46.1 µM] | H = -13%
CCOc1cc(CNCCSc2nnnn2C)cc(Br)c1OCc1ccccc1
  A = ? | B = -9% | C = 9% | D = 3.6% | E = -4% | F = -2% | G = ? | H = ?
O=C(CN1CCN(c2ncccn2)CC1)N1CCCc2c1c(=O)oc1ccc(O)cc21
  A = 0% | B = 8% | C = -10% | D = -8.2% | E = -7% | F = 5% | G = 3% | H = 2%
CCOc1ccc2oc(C(=O)N3CCN(c4ccccc4OCC)CC3)c(C)c2c1
  A = -23% | B = 18% | C = . | D = . | E = . | F = 3% | G = -1% | H = -29%
Cc1cccc(/C(N)=N/OC(=O)C23CC4CC(CC(C4)C2)C3)c1
  A = ? | B = -12% | C = -3% | D = -6.5% | E = -43% | F = . | G = ? | H = 0%
CC(C)(C)c1ccc(C(=O)NCCC(=O)N2CCC3(CC2)NCCc2[nH]cnc23)cc1
  A = 6%[46.1 µM] | B = -8% | C = . | D = . | E = 6% | F = -1% | G = 11%[46.1 µM] | H = 1%
Clc1ccc(OCCNCCc2ccccc2)cc1
  A = . | B = -25% | C = . | D = . | E = -5% | F = -3% | G = . | H = -4%
O=C(CSc1nc2ccccc2c(=O)n1NC(=O)c1ccccc1)c1ccc(Cl)cc1
  A = ? | B = 6% | C = ? | D = 2.9% | E = ? | F = -5% | G = ? | H = 20%
O=C(Cc1ccc(F)cc1)NC1CC(=O)N(c2ccc3c(c2)OCCO3)C1 (stereo not drawn)
  A = 0%[46.1 µM] | B = . | C = 0% | D = -0.7% | E = . | F = . | G = . | H = 13%
